SARS PLP yeast: qHTS of Yeast-based Assay for SARS-CoV PLP. 330,000 compounds, 0.19% hits. AID 485353, 2010. Potency, µM (titrated, usually from 32.9 µM), without a hit: at the top dose activity, positive = growth rescue. S. cerevisiae expressing SARS-CoV PLpro, growth rescue; control for the full effect not named in the record; also: 0% is about no effect; nearly all actives have a fitted effect of over 55% in size; growth read by luminescence after 48 h
StopGo reporter: High Throughput Screening for Foot and Mouth Disease Virus Antivirals | AID 1159524, 2015 | Potency, µM (series often up to 57.9 µM), without a hit: at the highest dose signal change, negative = less light | 410,000 compounds, 1.2% hits | human cells with a luciferase reporter of 2A StopGo recoding; control for the full effect not named in the record; active = well fitted falling curve with a large enough effect; inconclusive = small, poorly fitted or top-dose-only effect; inactive = no such curve, though single readings can be large or run the other way; tested in HEK293T cells; also: % is scaled to controls: 0 for no effect and ±100 for the full control effect; nearly all actives have a fitted effect of over 45% in size; luciferase light after 4 h
NS1 function inh: qHTS Assay for Inhibitors of Influenza NS1 Protein Function | S. cerevisiae slowed by influenza A NS1, growth recovery by OD600 | Potency, µM (top dose mostly 46.1 µM), for inactives: top-dose activity, positive = more growth | 270,000 compounds, 0.4% hits; also: actives are rising curves; nearly all actives have a fitted effect of over 50% in size
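In this qHTS, NS1 from influenza A is expressed in budding yeast, where it slows growth. Cells are switched from glucose to 2% galactose medium (pH 6.0, -URA), treated with compound, and growth recovery is read at OD600.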
Marburg entry inh: qHTS for inhibitors of binding or entry into cells for Marburg Virus | Potency, µM (series often up to 37.8 µM), for the others: top-dose activity change, negative = inhibition, usual class: inhibitors | Marburg virus pseudotyped entry inhibition, cell reporter; control for the full effect not named in the record; about a third of the inactives were read at about 46 µM | 300,000 compounds, 1.8% hits; active = well fitted inhibition curve with a large enough effect; inconclusive = small, poorly fitted or top-dose-only effect, or effect the other way; inactive = flat fitted curve, though single readings scatter; tested in HEK293 cells; about a fifth of its hits are not listed in these tables; also: % is scaled to controls: 0 for no effect and ±100 for the full control effect; luciferase read-out
Cruzain inh noDet: qHTS Assay for Promiscuous and Specific Inhibitors of Cruzain (without detergent); AID 1476, 2009; Cruzipain (Trypanosoma cruzi), P25779; purified cruzain, Z-FR-AMC fluorescence, no detergent; 200,000 compounds, 2.3% hits; Potency, µM, inactives show max response, negative = inhibition, usual class: inhibitors; active = well fitted curve in the direction sought with a large enough effect; inconclusive = small, poorly fitted or top-dose-only effect, or another doubt; inactive = no such curve, though single readings can be large; an effect the other way counts as inactive or inconclusive;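 also: plate controls were enzyme without inhibitor for no effect and buffer without enzyme for full effect; nearly all actives have a fitted effect of over 40% in size; top concentration of the series not given in the record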
Target sequence (P25779 123-467 limits assumed): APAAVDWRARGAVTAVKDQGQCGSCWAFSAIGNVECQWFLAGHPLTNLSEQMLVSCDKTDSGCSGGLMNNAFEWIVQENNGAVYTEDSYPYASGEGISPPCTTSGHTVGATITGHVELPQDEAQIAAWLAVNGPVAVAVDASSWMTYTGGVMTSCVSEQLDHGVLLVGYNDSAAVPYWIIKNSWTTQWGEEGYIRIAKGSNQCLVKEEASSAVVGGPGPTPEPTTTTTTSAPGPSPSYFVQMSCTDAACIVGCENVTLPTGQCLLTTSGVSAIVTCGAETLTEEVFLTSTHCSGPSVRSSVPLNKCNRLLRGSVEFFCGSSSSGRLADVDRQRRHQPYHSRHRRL
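Purified cruzain at 1.5 nM, pre-incubated 15 min with compound at room temperature in 100 mM sodium acetate pH 5.5, 5 mM DTT, 0.00005% Triton X-100. Reaction started with 2 uM Z-FR-AMC; AMC fluorescence increase over 60 s gives rate.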
Lassa entry inh: qHTS for Inhibitors of binding or entry into cells for Lassa Virus | Lassa virus pseudotype entry inhibition, cell reporter; control for the full effect not named in the record | Potency, µM (top dose mostly 37.9 µM), for inactives: at the highest dose activity change, negative = inhibition, most hits filed as inhibitors | 300,000 compounds, 1.2% hits | AID 540256, 2011; active means well fitted inhibition curve with a large enough effect; inconclusive means small, poorly fitted or top-dose-only effect, or effect the other way; inactive means flat fitted curve, though single readings scatter; tested in HEK293 cells; also: % is scaled to controls: 0 for no effect and ±100 for the full control effect; nearly all actives have a fitted effect of over 50% in size; luciferase read-out
RE007 growth inh: qHTS Assay for Inhibitors of the HIV-1 protein Vpr; 360,000 compounds, 0.21% hits; Potency, µM (series often up to 92.2 µM), for inactives: top-dose activity change, negative = less growth; S. pombe RE007 Vpr strain, BacTiter-Glo ATP luminescence, 24 h; control for the full effect not named in the record; active = well fitted falling curve with a large enough effect; inconclusive = small, poorly fitted or top-dose-only effect; inactive = no such curve, though single readings can be large or run the other way;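 also: % is scaled to controls: 0 for no effect and ±100 for the full control effect; nearly all actives have a fitted effect of over 50% in size; the assay follows cell death caused by Vpr and the record does not say whether a fall means rescue or toxicity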
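Fission yeast RE007 carrying one integrated HIV-1 vpr copy, seeded at OD 0.01 in PMG+AL medium with 23 nL pinned compound. Grown 24 h at 30 degrees; viability read by BacTiter-Glo luminescence after 5 min.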
Cruzain Triton: qHTS Assay for Promiscuous and Specific Inhibitors of Cruzain (with detergent); 200,000 compounds, 0.43% hits; Cruzipain (Trypanosoma cruzi), P25779; purified cruzain, Z-FR-AMC fluorescence, 0.01% Triton; AID 1478, 2009; Potency, µM, without a hit: max response, negative = inhibition, hits mostly inhibitors; active = well fitted curve in the direction sought with a large enough effect; inconclusive = small, poorly fitted or top-dose-only effect, or another doubt; inactive = no such curve, though single readings can be large; an effect the other way counts as inactive or inconclusive;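 also: plate controls were neutral wells for no effect and buffer without enzyme for full effect; nearly all actives have a fitted effect of over 40% in size; top concentration of the series not given in the record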
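In this qHTS format, compounds are incubated with 1.5 nM cruzain for 15 min at room temperature before 2 uM Z-FR-AMC is added. Release of AMC is followed at 360/450 nm, and progress is taken as the 60 s fluorescence difference.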
Active calls of the source: *; ? = inconclusive; nt = no result given; & = joins results of further samples; [ ] = dose if it differs, or a comment. Unless noted, calls follow the shape of the dose curve; as a rule, active means well fitted rising curve with a large enough effect; inconclusive means small, poorly fitted or top-dose-only effect; inactive means no such curve, though single readings can be large or run the other way. Potency is read from the fitted curve at half-maximal effect.

SMILES | SARS PLP yeast | StopGo reporter | NS1 function inh | Marburg entry inh | Cruzain inh noDet | Lassa entry inh | RE007 growth inh | Cruzain Triton
COc1ccc(C2/C(=C(/O)c3ccc4c(c3)CC(C)O4)C(=O)C(=O)N2Cc2ccncc2)cc1 (configuration not stated) | 2% | -3% | 0% | ? | nt | -12%[46.1 µM] | 6% | nt
COc1ccccc1N1CCN(C(=O)/C=C/c2ccccc2)CC1 | -12% | 1% | -15% | 1%[46.1 µM] | 0% | 1% | -6% | -0.6%
CCN(CC)c1nc2n(c(=O)n1)CCN2CC | 3% | -9% | ? | -23% | -10% | 17% | -3% | -1.3%
Cc1ccc(C(=O)Nc2ccc(S(=O)(=O)N3CCc4ccccc4C3)cc2)o1 | 1% | -1% | -18% | 1% | -13% | ? | -3% | -7.0%
COc1ccc(NC(=O)CNC(=O)Cc2cccc3ccccc23)c(OC)c1 | -1% | -17% | nt | -2% | nt | -2% | -14% | nt
Cc1cccc(NC(=O)c2cc(-c3ccc4c(c3)OCCO4)on2)c1 | nt | -47% | nt | ? | 12% | 3%[46.1 µM] | nt | -0.6%
CCOC(=O)Cn1nc(C)n(-c2ccc(Br)cc2)c1=O | 20% | 10% | 0% | nt | nt | nt | -9% | nt
Cc1cccc(NNC(=O)C2CCC2)c1 | -1% | 4% | -2% | nt | nt | nt | 27% | nt
Cc1nn(CC(=O)Nc2ccccn2)c(C)c1[N+](=O)[O-] | 5% | 4% | 14% | 19% | -1% | 2% | -7% | 2.1%
N/C(=N\OC(=O)Cc1ccccc1[N+](=O)[O-])c1cccnc1 | -2% | 19% | -12% | 28%[46.1 µM] | nt | -9% | 21% | nt
CC1CN(C(=O)N2CCCCC2)CCN1C(=O)N1CCCCC1 (configuration not stated) | 0% | 15% | 0% | -28%[46.1 µM] | nt | -23%[46.1 µM] | 26% | nt
CC(C)(C)N/N=C/c1cc(Cl)cc([N+](=O)[O-])c1O | -77% | ? | -50% | 6% | -12% | ? | ? | 0.0%
S=C(Nc1cccnc1)N1CCN(c2ccccc2Cl)CC1 | 1% | -3% | -1% | 5%[46.1 µM] | nt | ? | 3% | nt
Cc1cc(N2CCN(C)CC2)nc2ccc(NC(=S)N3CCN(c4ccc(Cl)cc4)CC3)cc12 | -3% | 6% | nt | -24%[46.1 µM] | nt | 2% | -5% | nt
COc1ccc(C(N)=O)cc1N | 2% | 2% | 11% | 1% | 5% | -1% | -2% | 5.7%
COc1ccccc1Nc1nc(N)nc(CN2CCC(C)CC2)n1 | 1% | -5% | nt | -2% | nt | 0% | -17% | nt
CCCc1nnc(NC(=O)CCC(=O)N2CCN(Cc3cc(Cl)ccc3OC)CC2)s1 | 3% | -24% | -17% | nt | nt | nt | 12% | nt
Cc1ccc(C(=O)NCCNC(=O)c2ccccc2)cc1 | 2% | 10% | 7% | 0%[46.1 µM] | nt | 9% | -2% | nt
O=C(CSc1nnc(CNC(=O)C23CC4CC(CC(C4)C2)C3)n1-c1ccccc1)Nc1ccccc1 | 11% | -29% | 8% | ? | 23% | -28% | 46% | -3.6%
COc1ccc(C(=O)c2cn(Cc3ccccc3F)c3cc4c(cc3c2=O)OCCO4)cc1OC | nt | -9% | nt | 2%[46.1 µM] | ? | -13%[46.1 µM] | nt | -4.8%
Nc1c(C(=O)CCC(=O)O)oc2ccc(Cl)cc12 | 9% | ? | -65% | -2% | -16% | nt | 2% | -1.5%
Cc1ccc(C2C3=C(CC(C)(C)CC3=O)OC3=C2C(=O)CC(C)(C)C3)cc1 | 11% | 2% | 2% | -7%[46.1 µM] | nt | ? | 0% | nt
CC12CCC(=O)N1C(C(=O)NNC(=O)c1ccc(Cl)cc1)CS2 (configuration not stated) | 1% | -17% | nt | ? | nt | 17% | -2% | nt
COC(=O)c1cccc(NC(=O)Cn2cnc3c2c(=O)n(C)c(=O)n3C)c1 | 0% | nt | -1% | 0% | 7% | -20% | 1% | 3.7%
CC1=C(C(=O)OCc2ccccc2)C(c2ccccc2-c2ccccc2)NC(=O)N1CCCCCC(=O)O (configuration not stated) | -14% | 0% | -14% | -1% | ? | 9% | -1% | -17%&-26%
Cc1ccc(S(=O)(=O)N2CCOCC2)cc1C(=O)OC(C)C(=O)c1ccccc1 (configuration not stated) | -4% | -18% | nt | -28%[46.1 µM] | nt | -2% | -7% | nt
CCOc1cc(NC(=S)NCCCOC)c(OCC)cc1NC(=O)c1ccco1 | 9% | -1% | 0% | -3% | 2% | -9% | -5% | -4.7%
CCOc1ccc(NC(=O)COC(=O)C2(C)CC2(Cl)Cl)c([N+](=O)[O-])c1 (configuration not stated) | -11% | ? | -2% | ? | nt | 11% | 3% | nt
C/C(=N\NC(=S)NCc1ccccc1)c1ccc2ccccc2c1 | 25% | -6% | 27% | ? | ? | 2.3µM* | -4% | -10%
COP(=O)(OC)C(Nc1ccc(C)cc1)c1ccc(Br)cc1 (configuration not stated) | nt | -13% | nt | 9%[46.1 µM] | nt | 34%[46.1 µM] | -15% | nt
O=C1c2ccc([N+](=O)[O-])cc2C(=O)N1Cc1cccnc1 | -2% | 19% | 28% | 0%[46.1 µM] | nt | 0%[46.1 µM] | -9% | nt
CCCn1c(SCC(=O)N2c3ccccc3CCc3ccccc32)nc2c1c(=O)n(C)c(=O)n2C | -1% | ? | 1% | -21% | 4% | -6% | 10% | 0.8%
O=C(/C=C/Nc1ccc(F)c(Cl)c1)c1ccco1 | -5% | -4% | -12% | ? | -23% | 20% | -10% | -20%
C=CCOc1ccc(Br)cc1CNCCCN1CCOCC1 | 15% | -27% | 6% | -28% | 3% | -20% | 7% | -11%
CCOc1nc(OCC)c2[nH]c(C(=O)O)c(Br)c2n1 | nt | -8% | nt | 26% | nt | 17% | -1% | nt
COc1ccccc1-c1cc(C(=O)Nc2c(F)cc(F)cc2Br)no1 | 4% | 1% | 2% | 7% | 9% | -27% | 12% | -3.0%
COc1ccc(OCCCC(=O)Nc2nccs2)cc1 | 0% | 8% | -6% | 17% | nt | 16% | 1% | nt
O=C(COc1ccc2c(-c3ccccc3)cc(=O)oc2c1)NCCCn1ccnc1 | 5% | -30% | -12% | nt | nt | nt | ? | nt
O=S(=O)(c1ccc2ccccc2c1)N1CCN(CCO)CC1 | 4% | -11% | -2% | 27%[46.1 µM] | nt | -2% | -13% | nt
Cn1c(=O)c2c(nc(SCc3cc4c(cc3Cl)OCO4)n2C)n(C)c1=O | -1% | nt | -9% | nt | 1% | nt | nt | 7.2%

The last six compounds of the section above lead into the next.
SMILES | SARS PLP yeast | StopGo reporter | NS1 function inh | Marburg entry inh | Cruzain inh noDet | Lassa entry inh | RE007 growth inh | Cruzain Triton
CCOc1nc(OCC)c2[nH]c(C(=O)O)c(Br)c2n1 | nt | -8% | nt | 26% | nt | 17% | -1% | nt
COc1ccccc1-c1cc(C(=O)Nc2c(F)cc(F)cc2Br)no1 | 4% | 1% | 2% | 7% | 9% | -27% | 12% | -3.0%
COc1ccc(OCCCC(=O)Nc2nccs2)cc1 | 0% | 8% | -6% | 17% | nt | 16% | 1% | nt
O=C(COc1ccc2c(-c3ccccc3)cc(=O)oc2c1)NCCCn1ccnc1 | 5% | -30% | -12% | nt | nt | nt | ? | nt
O=S(=O)(c1ccc2ccccc2c1)N1CCN(CCO)CC1 | 4% | -11% | -2% | 27%[46.1 µM] | nt | -2% | -13% | nt
Cn1c(=O)c2c(nc(SCc3cc4c(cc3Cl)OCO4)n2C)n(C)c1=O | -1% | nt | -9% | nt | 1% | nt | nt | 7.2%
Cc1ccccc1Cn1c(CN2CCC(C(=O)NCCN(C)C)CC2)cc2ccccc21 | nt | -19% | nt | nt | 0% | -20%[46.1 µM] | nt | 1.3%
Cc1ccc2c(c1)C(c1ccccc1)N(C(=O)c1ccccc1F)CC(=O)N2 (configuration not stated) | nt | 24% | nt | -6%[46.1 µM] | 14% | ? | nt | -1.6%
Cc1ccc(C)c2[nH]c(=O)c(CN(CC3CCCO3)C(=S)NCc3ccco3)cc12 (configuration not stated) | -1% | 7% | 26% | ? | nt | -24%[46.1 µM] | -8% | nt
CCOC(=O)c1c(C)[nH]c(C(=O)N2CCCC(C(=O)c3cccc(OC)c3)C2)c1C (configuration not stated) | 1% | -5% | -5% | nt | nt | nt | -1% | nt
c1ccc(Cn2c[n+](Cc3ccccc3)cn2)cc1 | 1% | -11% | -2% | nt | nt | nt | -9% | nt
O=C(COC(=O)C1CC2CCCC(C1)C2=O)NNC(=O)c1ccccc1F (configuration not stated) | -2% | 0% | nt | 1% | nt | 8% | -21% | nt
COc1ccc2c(c1)C=CC1(O2)N(CCO)c2ccccc2C1(C)C (configuration not stated) | 2% | -7% | -54% | ? | ? | -7% | -12% | -9.5%
Cc1c(-c2nnc(SCC(=O)O)n2-c2ccccc2Br)nnn1-c1ccccc1 | 22% | -20% | 5% | ? | 9% | -14% | 12% | 0.7%
CC(=O)NCCC(=O)Nc1nc(-c2cccs2)c(-c2cccs2)s1 | -1% | 7% | 3% | -2% | ? | -25% | -3% | -6.4%
COC(=O)c1ccc(NC(=O)C[n+]2ccccc2C)cc1 | 2% | 7% | 5% | nt | nt | nt | 4% | nt
O=C(NCCc1c[nH]c2ccc(Cl)cc12)c1cccnc1 | -1% | nt | -1% | -21% | -4% | -2% | -3% | 2.0%
Cc1cccc(Sc2ccc([N+](=O)[O-])cc2[N+](=O)[O-])n1 | -14% | ? | -3% | -29% | -6% | -26% | -16% | -5.5%
